Screening results from PubChem.
Methyltransferases: Primary Screen for Target Class Profiling of Small Molecule Inhibitors of Methyltransferases. AID 1745853, 2022. purified enzyme, MTase-Glo SAH luminescence; stronger effect = lower value. calls only at 40 µM. 25,000 compounds, 3.9% hits; active = -50% or lower on at least one of six enzymes; inconclusive = the cases between; inactive = as a rule above -30% on all six;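 further: enzymes were COMT GAMT GNMT HNMT NNMT and PNMT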
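Each enzyme was reacted with SAM and its substrate, with compounds tested once at 40 uM; SAH formed was read by MTase-Glo luminescence.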
Calls only; i = inactive; ? = inconclusive; + = active, no number. On the % scale 0 is the no-effect control and ±100 the full control effect.

smiles,Methyltransferases
COc1ccc(N2C(=O)c3cc4ccccc4n3CC2(C)C(=O)NC2CCCCC2)cc1OC (configuration not stated),i
Cc1n[nH]c(C)c1CNC(=O)C1CCN(c2cn[nH]c(=O)c2)C1 (configuration not stated),i
C=C(C)C(=O)O[C@H]1C[C@@](C)(O)C(=O)CC(O)/C(C)=C\[C@H]2OC(=O)C(=C)[C@H]12 (some centres not stated),i
CC1(CO)CCCC2(C)C3COC(=O)C3=CC(O)C12 (configuration not stated),i
Cc1ccc(CNC(=O)Cn2nc3n(C)c(=O)c4ccc(C(=O)NCC(C)C)cc4n3c2=O)cc1,i
CCOC(=O)c1cc2n(n1)CC(C)(C(=O)NCc1ccccc1)N(CCCc1ccccc1)C2=O (configuration not stated),i
O=S(=O)(c1ccc(Cl)cc1)c1nnn2c1nc(NCc1ccccc1)c1ccccc12,i
CCC(C)NC(=O)c1ccc2c(=O)n(Cc3ccccc3)c3nn(CC(=O)NC(C)(C)C)c(=O)n3c2c1 (configuration not stated),i
COCCN1CC(CO)C2(CCN(C(=O)Cc3c(C)noc3C)CC2)C1 (configuration not stated),i
Cc1ccccc1NC(=O)N1CCn2cccc2C1Cc1ccccc1 (configuration not stated),i
CN(C)S(=O)(=O)N1CCCC(c2nc(-c3ccccc3)no2)CCNC(=O)CC1 (configuration not stated),i
CCCOC(=O)Cn1c(=O)oc2cc(S(=O)(=O)NCC(C)c3ccccc3)ccc21 (configuration not stated),i
O=C(Cc1ccsc1)Nc1ccc2c(N3CCCC3)ncnc2c1,+
CS(=O)(=O)N1C[C@@H]2OCC(=O)N(Cc3ccncc3)[C@@H]2C1,i
CCCNC(=O)N1CCCC(c2nc(CCOc3ccc(F)cc3)no2)C1 (configuration not stated),i
Cc1cc2c(cc1S(=O)(=O)Nc1ccc(Br)cc1)n(C)c(=O)n2C,i
CCCn1c(=O)c2cc(Cl)ccc2n2c(SCc3cccc(F)c3)nnc12,i
CCc1ccc(CNC(=O)c2cc3n(n2)CC(C)(C(=O)NC2CCCCC2)N(C)C3=O)cc1 (configuration not stated),i
CCOC(=O)c1cc2n(n1)CC(C)(C(=O)NCc1ccccc1)N(Cc1cccc(OC)c1)C2=O (configuration not stated),i
CCOC(=O)c1cc2n(n1)CC(C)(C(=O)NC1CCC(C)CC1)N(Cc1ccc3c(c1)OCO3)C2=O (configuration not stated),i
CC1CCCC(NC(=O)C2(C)Cn3c(cc4occc43)C(=O)N2Cc2cccc(F)c2)C1C (configuration not stated),i
O=C(O)/C=C/c1cc2c(cc1O[C@@H]1O[C@H](CO)[C@@H](O)[C@H](O)[C@H]1O)OCO2,i
C/C=C/C=C/[C@@H]1O[C@](O)([C@H](CC)C(=O)NC/C=C/C=C(\C)[C@@H](OC)[C@@H](C)[C@@H]2O[C@H](/C=C/C=C/C=C(\C)C(=O)c3c(O)ccn(C)c3=O)[C@H](O)[C@@H]2O)[C@H](O)[C@H](O)C1(C)C,i
Cc1noc(C)c1C(=O)N1CC(N2C(=O)c3c(c(C)nn3-c3ccccc3)C2C)C1 (configuration not stated),i
O=C1CCCN1CCCN1C(=O)[C@@H]2C[C@@H](O)CN2C2(CN(C3CCC(F)(F)CC3)C2)C1=O,i
COc1ccccc1N1CCN(CC(C(=O)NC(C)(C)C)c2ccccc2)CC1 (configuration not stated),i
Cc1cccc(NC(=O)CSc2nnc3n(Cc4ccc(F)cc4)c(=O)c4ccccc4n23)c1,i
Cc1ccccc1-c1nccc2c(=O)cc(C3=CCOCC3)oc12,i
CCCn1c(=O)c2ccc(C(=O)NCC(C)C)cc2n2c(SCC(=O)c3ccc(OC)cc3)nnc12,i
O=C(Cc1cc2c(cc1Cl)OCCO2)N[C@@H]1COCC[C@@H]1OCC1CC1,i
CCCN1C(=O)c2c(C(=O)NCCc3ccc(Cl)cc3)ncn2CC1(C)C(=O)NCc1ccc(C)cc1 (configuration not stated),i
CCCCN1C(=O)c2cc(C(=O)NCc3ccc(OCC)cc3)nn2CC1(C)C(=O)NC1CCCC1 (configuration not stated),i
COc1ccccc1CN1C(=O)c2cc(-c3cccs3)nn2CC1(C)C(=O)NC1CCCCC1 (configuration not stated),i
O=C1NC2(CN([S+](=O)([O-])c3ccsc3)C2)Oc2ccccc21,i
COc1cc2c(cc1O)NC(=O)CC2c1cn[nH]c1-c1cc(C)ccc1C (configuration not stated),+
CCc1ccc(N2C(=O)c3cc4sc(CC)cc4n3CC2(C)C(=O)NC2CCCCC2)cc1 (configuration not stated),i
O=c1c2ccccc2n2c(-c3ccc(F)c(F)c3)nnc2n1CCc1ccccc1,i
C=CC(=O)Nc1cccc(Oc2nc(Nc3ccc(N4CCN(C)CC4)cc3)ncc2Cl)c1,+
COCCNC(=O)C1(C)Cn2c(nc3ccccc32)C(=O)N1CCc1ccc(Cl)cc1 (configuration not stated),i
Cc1ccccc1CCNC(=O)CCn1ccc2cc(S(=O)(=O)N3CCCCC3)ccc21,i
CC1CCN(S(=O)(=O)c2ccc3c(ccn3CC(=O)NCc3ccc(Cl)cc3)c2)CC1,i
CC1(C(=O)NC2CCCCCCC2)Cn2c(cc3sccc32)C(=O)N1Cc1ccc(Cl)cc1 (configuration not stated),i
CCCCCNc1nc2c(S(=O)(=O)c3ccc(C)cc3)nnn2c2ccccc12,i
CC(C)C1NC(=O)C2CCCN2C1=O (configuration not stated),i
CC(=O)O[C@@H]1[C@H](O[C@@H]2O[C@H](CO)[C@@H](O)[C@H](O)[C@H]2O)[C@@H](O[C@@H]2O[C@@H](C)[C@H](O)[C@@H](O[C@@H]3O[C@H](CO)[C@@H](O)[C@H](O)[C@H]3O)[C@H]2O)[C@H](OC(=O)[C@]23CCC(C)(C)C[C@H]2C2=CCC4[C@@]5(C)C[C@H](O)[C@H](O[C@@H]6O[C@H](C(=O)O)[C@@H](O)[C@H](O)[C@H]6O)[C@@](C)(C(=O)O)C5CC[C@@]4(C)[C@]2(C)CC3)O[C@@H]1C (some centres not stated),i
COc1ccc(Cn2cc(C(C(=O)O)N(C)Cc3cccnc3)cn2)cc1 (configuration not stated),i
O=C(c1ccc(F)c(Cl)c1)N1C[C@@H](CO)[C@H](c2ccccn2)C1,i
Cc1ccc(CCNS(=O)(=O)c2ccc3[nH]c(=O)[nH]c3c2)cc1,i
COc1ccc(C(C)NC(=O)c2noc(-c3ccc(F)cc3)n2)cc1OC (configuration not stated),i
CCOC(=O)c1cc2n(n1)CC(C)(C(=O)NCc1ccc(F)cc1)N(Cc1ccccc1F)C2=O (configuration not stated),i

(list continues)
smiles,Methyltransferases
N#Cc1ccccc1-c1cc2c(ccn2Cc2ccncc2)c(N2CCOCC2)n1,+
CCCCCCCCCC(=O)N[C@@H](Cc1c[nH]c2ccccc12)C(=O)N[C@H](CC(N)=O)C(=O)N[C@@H](CC(=O)O)C(=O)N[C@@H]1C(=O)NCC(=O)N[C@@H](CCCN)C(=O)N[C@@H](CC(=O)O)C(=O)N[C@H](C)C(=O)N[C@@H](CC(=O)O)C(=O)NCC(=O)N[C@H](CO)C(=O)N[C@@H]([C@@H](C)CC(=O)O)C(=O)N[C@@H](CC(=O)c2ccccc2N)C(=O)O[C@@H]1C,i
CC(C)n1c(=O)c2ccc(C(=O)NC3CCCCC3)cc2n2c(=O)n(CC(=O)c3ccc(F)cc3)nc12,i
CCc1cccc2c3c([nH]c12)[C@@](CC)(CC(=O)O)OCC3,?
CC(C)Oc1ccc(CN2C(=O)c3cc4occc4n3CC2(C)C(=O)NC2CCCCCCC2)cc1 (configuration not stated),i
CC(=O)C1CCC(=O)N1Cc1ccccc1 (configuration not stated),i
COc1ccccc1NC(=O)Cn1c(=O)c2ccccc2n2nnc(-c3ccccc3)c12,i
c1cc(CN(CCN2CCCCC2)CC2CCCN(C3CCCC3)C2)c2nonc2c1 (configuration not stated),i
Cc1cc(=O)oc2c(C=O)c(O)ccc12,+
O=C(Nc1ccc(F)cc1)N[C@H]1[C@H](O)[C@@H](N2CCCC2)[C@@H]2OC[C@H]1O2,i
CC(C)NC(=O)c1ccc2c(=O)n(Cc3ccccc3)c3nnc(SCC(=O)NC4CCCC4)n3c2c1,i
Cc1ccc(NC(=O)Cn2nc3n(Cc4ccc(F)cc4)c(=O)c4ccccc4n3c2=O)cc1C,i
CC12CC34C=CC(=O)C(C)(CCC(=O)O)C3C(CC1C4)O2 (configuration not stated),i
CCCn1c(=O)c2ccc(Cl)cc2n2c(=O)n(CC(=O)Nc3ccc(F)cc3)nc12,i
O=C(Cc1ccc(-c2ccccc2)cc1)NC1CCC1,i
CC1OC(OC2C(C)OC(OC3C(OC(=O)C45CCC(C)(C)CC4C4=CCC6C7(C)CCC(OC8OC(C(=O)O)C(O)C(O)C8OC8OC(CO)C(O)C(OC9OC(C)C(O)C(O)C9O)C8O)C(C)(CO)C7CCC6(C)C4(C)CC5)OC(CO)C(O)C3O)C(O)C2O)C(O)C(O)C1O (configuration not stated),i
Fc1ccc2c(CCNCc3cccc(OCC(F)(F)C(F)F)c3)c[nH]c2c1,+
COc1ccc(OC)c(S(=O)(=O)N2CCC3(CC2)C(OC)C(=O)N3CC2CC2)c1 (configuration not stated),i
O=C(NC1CCCC1)c1ccc(OC2CCN(CCCC(F)(F)F)CC2)c(Cl)c1,i
COc1ccc(C)cc1NC(=O)N1CCn2cccc2C1Cc1ccccc1 (configuration not stated),i
O=C(CSCC1CC1)N1CCC2(CCC(=O)N(CCCn3ccnc3)C2)CC1,i
CCCCN1C(=O)c2cc(C(=O)NCc3ccc(OC)c(OC)c3)nn2CC1(C)C(=O)NC1CCCC1 (configuration not stated),i
COC1C(CO)OC(n2cnc3c(=O)[nH]cnc32)C1O (configuration not stated),i
COCCCNc1nc(-c2cccnc2)nc2c1CNC2,i
Cc1cn2nc(C(=O)NC3CCCCCC3)cc2c(N2CCSCC2)n1,i
C[C@]12CC/C(=N\OCC(=O)O)C=C1CC[C@@H]1[C@@H]2[C@@H](O)C[C@@]2(C)[C@H]1CC[C@]2(O)C(=O)CO,i
O=C(CCCc1nnc2n3nc(-c4ccccc4)nc3c3ccccc3n12)N1CCN(Cc2ccccc2)CC1,i
Nc1ccccc1NC(=O)CCCCCCC(=O)Nc1ccccc1,?
COc1cccc(CNC(=O)C2CCCCc3nnc(-c4ccccc4)n32)c1 (configuration not stated),i
Nc1ncnc2c1ncn2[C@H]1O[C@@H](C(=O)N2CCN(CC(=O)Nc3cccc4c3CNC4=O)CC2)[C@H](O)[C@@H]1O,+
O=C(Nc1ccccc1C(F)(F)F)N1CCCC(Cn2cnc3cccnc32)C1 (configuration not stated),i
CC(=O)O[C@H](C[C@@H](C)[C@H]1C(=O)[C@H](O)[C@@]2(C)[C@@H]3CCC4C(C)(C)[C@@H](O[C@@H]5OC[C@H](O)[C@H](O)[C@H]5O)CC[C@@]45C[C@@]35CC[C@]12C)[C@@H]1OC1(C)C (some centres not stated),i
CC(C)(Cc1ccc(F)cc1)NC(=O)CC1C(=O)NCCN1Cc1ccoc1 (configuration not stated),i
COc1ccc(C2(C#N)CCC(C(=O)O)CC2)cc1OC1CCCC1 (configuration not stated),i
CCCS(=O)(=O)Nc1ccc(F)c(C(=O)c2c[nH]c3ncc(Cl)cc23)c1F,i
O=C(Nc1ccc(F)cc1)c1c[nH]c2cccnc12,i
Cc1cccc(NC(=O)Cn2c(=O)oc3cc(S(=O)(=O)NCc4ccccc4)ccc32)c1,i
COc1ccccc1-c1cc(C(=O)N2CCOCC2)nc2c1cnn2C,i
COc1ccc(CNC[C@H]2O[C@H](Cc3cc(COc4ccccc4)on3)CC[C@@H]2O)cc1,i
Cc1ccc(CN2CC(Cn3c(C)cnc3-c3ccncc3)C2)o1,i
O=C1CCCC2=C1C1(CCSCC1)N=C(Nc1nc3ccccc3o1)N2,?
Cc1ccccc1NC(=O)N1Cc2c(sc3c2CCCC3)-n2cccc2C1c1cc(F)cc(F)c1 (configuration not stated),i
COc1ccc(CCNc2ncnc3c2CN(C2CCC2)C(=O)N(C)C3)cc1,i
Cn1c(=O)c2ccc(C(=O)NC3CCCC3)cc2n2c(=O)n(CC(=O)NCc3ccc(Cl)cc3)nc12,i
COc1ccc(CCc2nc3cc(-c4c(C)noc4C)ccc3n2CC(C)N2CCOCC2)cc1Cl (configuration not stated),?
CSc1ccc(CCNC(=O)c2cc3n(n2)CC(C)(C(=O)NC2CCCCCC2)N(C)C3=O)cc1 (configuration not stated),i
COCCn1nnc2cc(S(=O)(=O)N(C)CC(=O)N3CCOCC3)ccc21,i
CCc1ccc(N2C(=O)c3cc4sccc4n3CC2(C)C(=O)NC2CCCCCCC2)cc1 (configuration not stated),i

Part of the list above, with each value named.
Structure: CCc1ccc(N2C(=O)c3cc4sccc4n3CC2(C)C(=O)NC2CCCCCCC2)cc1 (configuration not stated)
  Methyltransferases: i

Structure: COc1ccc(CCc2nc3cc(-c4c(C)noc4C)ccc3n2CC(C)N2CCOCC2)cc1Cl (configuration not stated)
  Methyltransferases: ?

Structure: Cn1c(=O)c2ccc(C(=O)NC3CCCC3)cc2n2c(=O)n(CC(=O)NCc3ccc(Cl)cc3)nc12
  Methyltransferases: i

Structure: COc1ccc(CCNc2ncnc3c2CN(C2CCC2)C(=O)N(C)C3)cc1
  Methyltransferases: i

A portion of the library; the hit share may differ from the screen's.
